PKD1 kinase inh: blocks activity of human protein kinase D1; 200,000 tested, 0.056% active; AID 797; PKD1 kinase fluorescence polarization assay; inhibition, %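 (about 10 µM by stock and volumes)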; Q15139;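 active means inhibition of 50% or more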;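 further: controls were vehicle for no effect and a reference inhibitor for full effect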
INS promoter inh: TRM-6 insulin promoter activity inhibition; TRM-6 cells (human fetal islet line), insulin promoter-eGFP reporter, imaging; reporter expression induced with tamoxifen; inhibition, % at 2 µM; AID 1273; 130,000 tested, 0.9% active;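 active means inhibition above the mean plus 3 SD, with well images judged a real hit on visual review, cut at about 60% in these data, passing the limit was not always enough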
GALR2 agonist: GALR2 (human) receptor agonism. O43603. GALR2-expressing cells, agonist activation read-out. activation, %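 (tested at 5 µM)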. 140,000 tested, 0.48% active. AID 803;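 active means above mean plus 3 SD of all compounds, about 5% in these data, not always enough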;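 further: 0% = vehicle buffer wells and 100% = reference agonist at full effect; tested in CHO reporter cells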
Target sequence (O43603 whole entry, looked up): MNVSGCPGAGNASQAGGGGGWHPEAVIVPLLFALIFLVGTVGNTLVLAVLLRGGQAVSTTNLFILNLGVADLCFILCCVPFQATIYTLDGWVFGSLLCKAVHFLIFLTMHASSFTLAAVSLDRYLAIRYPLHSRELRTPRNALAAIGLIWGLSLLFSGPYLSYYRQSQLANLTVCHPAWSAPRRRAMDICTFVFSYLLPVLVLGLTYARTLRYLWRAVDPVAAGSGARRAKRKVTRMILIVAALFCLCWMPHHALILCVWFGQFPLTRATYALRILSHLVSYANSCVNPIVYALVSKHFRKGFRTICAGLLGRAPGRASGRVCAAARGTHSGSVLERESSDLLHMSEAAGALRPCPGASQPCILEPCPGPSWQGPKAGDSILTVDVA
RGS16-Gao HTS: regulators of human RGS16-Galphao interaction; O15492+P09471; bead-based flow cytometry RGS16-Galphao binding, fluorescence; actives lie on both sides; 220,000 tested, 0.38% active; AID 1441; binding response (% of control), % at 10 µM;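 active means below 25% or above 175%, edge rows of some plates excepted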;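 further: Galphao activated by GDP with aluminum fluoride before binding; 100% = wells without compound and 0% = beads without RGS; some results beyond the cut were filed as inactive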
Target sequence (O15492 whole entry, looked up): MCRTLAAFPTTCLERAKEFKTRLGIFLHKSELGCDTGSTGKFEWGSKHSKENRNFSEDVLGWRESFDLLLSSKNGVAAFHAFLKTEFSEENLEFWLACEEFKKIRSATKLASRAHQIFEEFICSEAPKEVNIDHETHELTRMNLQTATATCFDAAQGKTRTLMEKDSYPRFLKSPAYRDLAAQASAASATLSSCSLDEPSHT
Target sequence (P09471 whole entry, looked up): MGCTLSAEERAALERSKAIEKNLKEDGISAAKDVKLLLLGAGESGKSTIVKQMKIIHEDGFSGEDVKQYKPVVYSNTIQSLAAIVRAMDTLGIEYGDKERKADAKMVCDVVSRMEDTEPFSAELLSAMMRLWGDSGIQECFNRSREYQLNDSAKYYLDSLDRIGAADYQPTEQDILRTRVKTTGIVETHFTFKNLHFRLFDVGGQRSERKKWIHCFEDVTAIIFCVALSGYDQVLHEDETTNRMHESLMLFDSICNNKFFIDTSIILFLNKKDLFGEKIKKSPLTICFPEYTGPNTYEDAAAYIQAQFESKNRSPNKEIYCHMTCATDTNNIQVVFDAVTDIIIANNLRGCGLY
HSV augment: increases HSV replication in cells. maximum fold increase. HSV replication augmentation in cells, fold increase. 220,000 tested, 0.005% active;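 active means peak rise of 1.5-fold or more in the series; tested in PC3 cells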;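 further: first round at 10 µM; read as green reporter fluorescence; hits show the peak of a series up to 25 µM; 1 = signal of infected wells without compound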
INS promoter inh cell count: recorded beside INS promoter inh, whose call it bears; normalized cell count, %; measured here: cell count, toxicity; reference of the scale not given here;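 cells exposed to compound for 48 h; stained nuclei by imaging scaled within each plate; lower means fewer cells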
HSV augment primary fold: second read-out of HSV augment, no call of its own (marks repeat the call); fold increase; compound at 10 µM; measured here: primary screen fold increase 10 uM; tested in PC3 cells;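 GFP signal in the first replicate; 1 = infected wells without compound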
The depositor's hits bear a star.

For Cc1c(C(=O)NCc2ccc(S(N)(=O)=O)cc2)oc2ccc(Cl)cc12 the results were PKD1 kinase inh 1, RGS16-Gao HTS 101, HSV augment inactive and HSV augment primary fold 1.1.
For C#Cc1ccc([C@@H]2C=C(C(=O)NCc3nc4ccccc4[nH]3)O[C@H](OCC)[C@H]2CCCO)cc1 the results were RGS16-Gao HTS 100, HSV augment inactive and HSV augment primary fold 1.
For COc1ccc(C2C(C(=O)Nc3cc(C)on3)c3ccccc3C(=O)N2C)cc1 (stereo unspecified) the results were PKD1 kinase inh 8, GALR2 agonist -0.7, RGS16-Gao HTS 96, HSV augment inactive and HSV augment primary fold 0.88.
For Cc1cc(C)c2oc(C(=O)N(Cc3ccccc3)C3CCS(=O)(=O)C3)cc(=O)c2c1 (stereo unspecified) the results were RGS16-Gao HTS 98, HSV augment inactive and HSV augment primary fold 1.2.
CCOC(=O)c1sc2cccc(F)c2c1N was read as PKD1 kinase inh -4, INS promoter inh 29, GALR2 agonist -1.5, RGS16-Gao HTS 58, HSV augment inactive, INS promoter inh cell count 171 and HSV augment primary fold 0.86.
For COc1ccc(NC(=O)CCNS(=O)(=O)c2ccc3c(c2)c(=O)n(C)c(=O)n3C)cc1OC the results were PKD1 kinase inh -3, RGS16-Gao HTS 103, HSV augment inactive and HSV augment primary fold 0.87.
COc1cc(Br)c(CCNC(=O)c2ccco2)cc1OC was read as PKD1 kinase inh 7, INS promoter inh 6, RGS16-Gao HTS 102, HSV augment inactive, INS promoter inh cell count 71 and HSV augment primary fold 1.2.
COc1cc(-c2nnc(-c3ccc(N4CCOCC4)cc3)o2)cc(OC)c1OC was read as PKD1 kinase inh 6, INS promoter inh 27, GALR2 agonist -1.5, RGS16-Gao HTS 98, HSV augment inactive, INS promoter inh cell count 86 and HSV augment primary fold 0.83.
Screening OCCN1CCN(CC#CCn2c3ccccc3c3ccccc32)CC1 returned PKD1 kinase inh -9, GALR2 agonist -1.4, RGS16-Gao HTS 98, HSV augment inactive and HSV augment primary fold 0.82.
`O=C(c1ccc(COc2ccccc2Cl)o1)N1CCN(c2ccccc2)CC1` gave PKD1 kinase inh -2, GALR2 agonist -1.8, RGS16-Gao HTS 107, HSV augment inactive and HSV augment primary fold 1.1.
Screening COc1ccc2c(c1O)Cc1ccccc1C2=O returned PKD1 kinase inh 4, INS promoter inh 7, GALR2 agonist -0.8, RGS16-Gao HTS 97, HSV augment inactive, INS promoter inh cell count 115 and HSV augment primary fold 1.1.
`Cn1c(SC2=CS(=O)(=O)c3ccccc32)nc2ccccc21` gave PKD1 kinase inh -13, INS promoter inh -19, GALR2 agonist -0.9, RGS16-Gao HTS 102, HSV augment inactive, INS promoter inh cell count 30 and HSV augment primary fold 0.41.
Screening CC(C)(C)N1C(=O)c2ccccc2NC(=O)N1Cc1ccccc1 returned PKD1 kinase inh 9, INS promoter inh -56, GALR2 agonist -1.5, RGS16-Gao HTS 82, HSV augment inactive, INS promoter inh cell count 130 and HSV augment primary fold 1.1.
O=C(CCN1CCOCC1)Nc1c(-c2ccccc2)c2cc(Br)ccc2[nH]c1=O was read as PKD1 kinase inh -14, INS promoter inh -210, GALR2 agonist -1.0, RGS16-Gao HTS 110, HSV augment inactive, INS promoter inh cell count 48 and HSV augment primary fold 1.
`O=C(CCSc1ccccc1)Nc1nc2c(s1)CCCC2` gave PKD1 kinase inh 6, INS promoter inh 0, GALR2 agonist -1.7, RGS16-Gao HTS 100, HSV augment inactive, INS promoter inh cell count 38 and HSV augment primary fold 1.1.
For CCc1nnc(NC(=O)CSc2nc(-c3ccc(OC)cc3)ns2)s1 the results were PKD1 kinase inh -6, INS promoter inh 25, GALR2 agonist -3.4, RGS16-Gao HTS 72, HSV augment inactive, INS promoter inh cell count 120 and HSV augment primary fold 0.86.
CS(=O)(=O)n1nc(OC(=O)c2cccc3ccccc23)cc1N was read as PKD1 kinase inh -4, INS promoter inh 29, GALR2 agonist -1.0, RGS16-Gao HTS 104, HSV augment inactive, INS promoter inh cell count 95 and HSV augment primary fold 0.98.
`C/C(=N/NC(=O)c1cc2ccccc2cc1O)C1C(=O)c2ccccc2C1=O` gave PKD1 kinase inh 4, INS promoter inh 56, GALR2 agonist -3.0, RGS16-Gao HTS 138, HSV augment inactive, INS promoter inh cell count 47 and HSV augment primary fold 0.69.
Screening Cc1oc2c(c1C(=O)NCCCC(=O)O)CCCC2 returned PKD1 kinase inh -4, INS promoter inh -10, GALR2 agonist -2.4, RGS16-Gao HTS 103, HSV augment inactive, INS promoter inh cell count 73 and HSV augment primary fold 0.91.
`O=C(Nc1nnc(C2CC2)o1)c1ccc(S(=O)(=O)N2CCc3ccccc3C2)cc1` gave PKD1 kinase inh -3, RGS16-Gao HTS 93, HSV augment inactive and HSV augment primary fold 0.92.
Screening O=C(CCCC(=O)OCC(=O)c1ccc(F)cc1)Nc1cc(C(F)(F)F)ccc1Cl returned PKD1 kinase inh -2, INS promoter inh -4, GALR2 agonist -4.0, RGS16-Gao HTS 93, HSV augment inactive, INS promoter inh cell count 81 and HSV augment primary fold 0.88.
`c1ccc2cc3[nH]c(CN4CCCCC4)nc3cc2c1` gave PKD1 kinase inh -3, RGS16-Gao HTS 97, HSV augment inactive and HSV augment primary fold 1.
Screening COc1ccc(CCNc2oc(-c3ccccc3OC)nc2C#N)cc1 returned PKD1 kinase inh -11, INS promoter inh 11, GALR2 agonist 0.3, RGS16-Gao HTS 103, HSV augment inactive, INS promoter inh cell count 132 and HSV augment primary fold 0.84.
Screening NC(=S)Nc1ncc(CCN2CCOCC2)c(-c2ccc(F)cc2)n1 returned PKD1 kinase inh 2, RGS16-Gao HTS 98, HSV augment inactive and HSV augment primary fold 1.1.
For Cc1ccc(NC(=O)CN2C(=O)C3C4C=CC(C4)C3C2=O)cc1S(=O)(=O)N(C)C (stereo unspecified) the results were PKD1 kinase inh -5, INS promoter inh 20, GALR2 agonist -1.8, RGS16-Gao HTS 110, HSV augment inactive, INS promoter inh cell count 147 and HSV augment primary fold 1.
CCN(CC)S(=O)(=O)c1ccc(N2CCN(c3cccc(OC)c3)CC2)c([N+](=O)[O-])c1 was read as PKD1 kinase inh 0, INS promoter inh -31, GALR2 agonist -1.0, RGS16-Gao HTS 53, HSV augment inactive, INS promoter inh cell count 102 and HSV augment primary fold 0.9.
Screening CCCCCCC(=O)N1CCN(c2cc3c(cc2F)c(=O)c(C(=O)O)cn3CC)CC1 returned PKD1 kinase inh 2, INS promoter inh 57, GALR2 agonist -0.7, HSV augment inactive, INS promoter inh cell count 79 and HSV augment primary fold 1.1.
COc1cc(C2Nc3ccccc3C(=O)N2c2ccccc2)c(Br)cc1OCC(=O)O (stereo unspecified) was read as PKD1 kinase inh 11, INS promoter inh 7, GALR2 agonist -1.1, RGS16-Gao HTS 105, HSV augment inactive, INS promoter inh cell count 135 and HSV augment primary fold 0.92.
Cc1ccc(-n2c(SCC(=O)Nc3ccc4c5c(cccc35)CC4)nc(O)c(C)c2=O)cc1 was read as PKD1 kinase inh -7, INS promoter inh 39, GALR2 agonist -0.1, RGS16-Gao HTS 108, HSV augment inactive, INS promoter inh cell count 90 and HSV augment primary fold 0.93.
CCOc1ccc(Nc2nc(N)nc(CSC(=S)N3CCN(c4ccccc4)CC3)n2)cc1 was read as RGS16-Gao HTS 90, HSV augment inactive and HSV augment primary fold 0.95.
`Cc1nc(SC2CC(=O)N(c3ccccc3)C2=O)nc2c1CCCC2` (stereo unspecified) gave PKD1 kinase inh -3, INS promoter inh 43, GALR2 agonist -1.3, RGS16-Gao HTS 92, HSV augment inactive, INS promoter inh cell count 127 and HSV augment primary fold 0.74.
For Cc1nn(CCCC(=O)N2CCc3ccccc3C2)c(=O)c2cc3sccc3n12 the results were PKD1 kinase inh -6, GALR2 agonist -0.6 and RGS16-Gao HTS 108.
Cc1ccc(C(=O)COC(=O)CN2C(=O)C3C4CCC(C4)C3C2=O)cc1[N+](=O)[O-] (stereo unspecified) was read as PKD1 kinase inh -6, GALR2 agonist 0.1, RGS16-Gao HTS 102, HSV augment inactive and HSV augment primary fold 1.
O=C(O)CC/C(=N\NC(=O)CNC(=O)c1ccc(F)cc1)c1ccccc1 was read as RGS16-Gao HTS 97, HSV augment inactive and HSV augment primary fold 1.1.
O=C(Cc1ccccc1)Nc1nc(-c2cccc([N+](=O)[O-])c2)cs1 was read as PKD1 kinase inh -1, GALR2 agonist -0.7, RGS16-Gao HTS 100, HSV augment inactive and HSV augment primary fold 0.9.
`CCOC(=O)CCCCC(=O)c1[nH]c(=O)[nH]c1Cn1cnc2ccccc21` gave PKD1 kinase inh 2, INS promoter inh -33, GALR2 agonist -1.9, RGS16-Gao HTS 105, HSV augment inactive, INS promoter inh cell count 118 and HSV augment primary fold 1.
For Cc1ccc(OCc2nnc(SCC(=O)c3cccc([N+](=O)[O-])c3)n2C)cc1 the results were PKD1 kinase inh -5, INS promoter inh -4, GALR2 agonist -2.9, RGS16-Gao HTS 113, HSV augment inactive, INS promoter inh cell count 106 and HSV augment primary fold 0.99.
CCOc1ccc2oc(C(=O)Nc3ccc(N4CCOCC4)cc3)c(C)c2c1 was read as PKD1 kinase inh 3, INS promoter inh -13, GALR2 agonist -0.1, RGS16-Gao HTS 106, HSV augment inactive, INS promoter inh cell count 110 and HSV augment primary fold 0.86.
For O=C(c1cccc2ccccc12)N1CCC(N2CCN(c3ccccc3)CC2)CC1 the results were PKD1 kinase inh 6, GALR2 agonist -0.5, RGS16-Gao HTS 110, HSV augment inactive and HSV augment primary fold 1.
COC(=O)CNC(=S)NC(=O)c1ccc(C(C)(C)C)cc1 was read as PKD1 kinase inh -1, INS promoter inh -38, RGS16-Gao HTS 99, HSV augment inactive, INS promoter inh cell count 110 and HSV augment primary fold 0.88.

Reprinted from the part before: 5 entries, then new ones.
`CCOC(=O)CCCCC(=O)c1[nH]c(=O)[nH]c1Cn1cnc2ccccc21` gave PKD1 kinase inh 2, INS promoter inh -33, GALR2 agonist -1.9, RGS16-Gao HTS 105, HSV augment inactive, INS promoter inh cell count 118 and HSV augment primary fold 1.
For Cc1ccc(OCc2nnc(SCC(=O)c3cccc([N+](=O)[O-])c3)n2C)cc1 the results were PKD1 kinase inh -5, INS promoter inh -4, GALR2 agonist -2.9, RGS16-Gao HTS 113, HSV augment inactive, INS promoter inh cell count 106 and HSV augment primary fold 0.99.
CCOc1ccc2oc(C(=O)Nc3ccc(N4CCOCC4)cc3)c(C)c2c1 was read as PKD1 kinase inh 3, INS promoter inh -13, GALR2 agonist -0.1, RGS16-Gao HTS 106, HSV augment inactive, INS promoter inh cell count 110 and HSV augment primary fold 0.86.
For O=C(c1cccc2ccccc12)N1CCC(N2CCN(c3ccccc3)CC2)CC1 the results were PKD1 kinase inh 6, GALR2 agonist -0.5, RGS16-Gao HTS 110, HSV augment inactive and HSV augment primary fold 1.
COC(=O)CNC(=S)NC(=O)c1ccc(C(C)(C)C)cc1 was read as PKD1 kinase inh -1, INS promoter inh -38, RGS16-Gao HTS 99, HSV augment inactive, INS promoter inh cell count 110 and HSV augment primary fold 0.88.
COCCN(CCOC)S(=O)(=O)c1ccc(C(=O)NC2CCN(Cc3ccccc3)CC2)cc1 was read as PKD1 kinase inh -3, INS promoter inh 53, GALR2 agonist -1.1, RGS16-Gao HTS 102, HSV augment inactive, INS promoter inh cell count 122 and HSV augment primary fold 1.
Screening CCC(=O)Nc1cccc(NC(=O)c2ccccc2Cl)c1 returned PKD1 kinase inh -4, INS promoter inh 7, RGS16-Gao HTS 95, HSV augment inactive, INS promoter inh cell count 91 and HSV augment primary fold 0.93.
Screening Cc1cccc(NC2=C(NC(=O)c3ccccc3)C(=O)c3ccccc3C2=O)c1 returned PKD1 kinase inh -7, GALR2 agonist -2.6, RGS16-Gao HTS 71, HSV augment inactive and HSV augment primary fold 0.72.
For CC(C)C(NC(=O)OCc1ccccc1)C(=O)NCc1ccc(C(=O)O)cc1 (stereo unspecified) the results were PKD1 kinase inh -4, INS promoter inh -14, GALR2 agonist -0.9, RGS16-Gao HTS 114, HSV augment inactive, INS promoter inh cell count 84 and HSV augment primary fold 0.95.
CCOC(=O)COn1c(=O)c(-c2cc3ccccc3o2)[n+]([O-])c2ccccc21 was read as PKD1 kinase inh -4, INS promoter inh -34, GALR2 agonist -0.8, RGS16-Gao HTS 90, HSV augment inactive, INS promoter inh cell count 112 and HSV augment primary fold 1.1.
Screening O=C1C2CCCN2C(c2ccc(F)c(F)c2)N1c1cccc(Cl)c1 (stereo unspecified) returned PKD1 kinase inh -10, GALR2 agonist -2.0, RGS16-Gao HTS 105, HSV augment inactive and HSV augment primary fold 1.1.
`CCN=C1S/C(=C\c2ccc(OC)c(OCC)c2)C(=O)N1CC` gave PKD1 kinase inh -4, INS promoter inh 17, GALR2 agonist 0.1, RGS16-Gao HTS 121, HSV augment inactive, INS promoter inh cell count 71 and HSV augment primary fold 1.
